Source: PubChem BioAssay
DUX4 txn inh: inhibitors of DUX4-driven ZSCAN4 reporter expression, primary screen, 293T cells, Gaussia and Italica luciferase; 37,000 tested, 0.8% active; activity change, negative = inhibition, % (concentration not given with the values); AID 1224904, 2016; 293T-iDUX4 ZSCAN4-Gaussia luciferase reporter, 24 h; active compounds read low;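 active = -10% or lower and over 25 points stronger than a control reporter; inconclusive = -10% or lower with a smaller gap; inactive = above -10%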;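 note: 0% = median of neutral control wells and -100% = median of positive control wells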
DUX4 txn inh difference: recorded beside DUX4 txn inh, whose call it bears; Gaussia minus Italica difference, %; measured here: selective DUX4 reporter inhibition;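 worked out from the two reporters; negative = selective loss of the DUX4 reporter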
DUX4 txn inh control: further read-out of DUX4 txn inh, marked with its call; activity change, negative = inhibition, %; measured here: Italica tet-on control reporter;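 0 = neutral control and -100 = positive control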
* marks the source's active call; other numbers are inactive results; ? = inconclusive; / = no result given. This is a subset; the hit share may differ from the screen's.

> COc1ccc2c3c([nH]c2c1)[C@H](CO)N(C(=O)c1ccccc1)CC31CCN(C)CC1
  DUX4 txn inh: ?; DUX4 txn inh difference: /; DUX4 txn inh control: /

> C[C@@H]1CN([C@@H](C)CO)C(=O)Cc2cc(NS(=O)(=O)c3ccccc3)ccc2O[C@@H]1CN(C)Cc1ccc(C(=O)O)cc1
  DUX4 txn inh: 0.9; DUX4 txn inh difference: 0.7; DUX4 txn inh control: 0.2

> C[C@H](CO)N1C[C@H](C)[C@@H](CN(C)Cc2cccc(F)c2)Oc2cc(C#Cc3ccccn3)ccc2S1(=O)=O
  DUX4 txn inh: -7.1; DUX4 txn inh difference: -6.0; DUX4 txn inh control: -1.0

> C[C@@H]1CN([C@H](C)CO)C(=O)c2cc(NS(=O)(=O)c3cccs3)ccc2O[C@H]1CN(C)Cc1ccc(C(=O)O)cc1
  DUX4 txn inh: -1.4; DUX4 txn inh difference: -2.4; DUX4 txn inh control: 1.1

> O=C(C[C@H]1CC[C@H]2[C@@H](COC[C@@H](O)CN2CC2CCOCC2)O1)N1CCOCC1
  DUX4 txn inh: 3.0; DUX4 txn inh difference: -0.6; DUX4 txn inh control: 3.6

> COc1cccc(S(=O)(=O)N2CCC3(CC2)CN[C@@H](CO)c2[nH]c4cc(OC)ccc4c23)c1
  DUX4 txn inh: 5.1; DUX4 txn inh difference: -10.8; DUX4 txn inh control: 15.9

> CO[C@H]1CN(C)C(=O)c2cc(NS(=O)(=O)CC(F)(F)F)ccc2OC[C@@H](C)NC[C@H]1C
  DUX4 txn inh: 1.0; DUX4 txn inh difference: -1.6; DUX4 txn inh control: 2.6

> CCCNC(=O)N(C)C[C@@H]1Oc2cc(C#C[C@H](C)O)ccc2S(=O)(=O)N([C@H](C)CO)C[C@@H]1C
  DUX4 txn inh: 3.7; DUX4 txn inh difference: -0.1; DUX4 txn inh control: 3.8

> CC=Cc1ccc2n(c1=O)C[C@H]1[C@H](CO)[C@@H](C(=O)NCCc3ccccc3)[C@@H]2N1C (mixture of isomers)
  DUX4 txn inh: -0.1; DUX4 txn inh difference: 0.6; DUX4 txn inh control: -0.7

> C[C@@H]1CN([C@@H](C)CO)C(=O)c2cc(NC(=O)Nc3ccc4c(c3)OCO4)ccc2O[C@@H](C)CCCCO[C@H]1CN(C)Cc1ccc(Cl)c(Cl)c1
  DUX4 txn inh: -0.9; DUX4 txn inh difference: -2.0; DUX4 txn inh control: 1.1

> C[C@@H]1CN([C@H](C)CO)C(=O)CCCn2nncc2CO[C@H]1CN(C)Cc1ccc2c(c1)OCO2
  DUX4 txn inh: 0.4; DUX4 txn inh difference: -2.1; DUX4 txn inh control: 2.5

> CCN1[C@@H]2Cn3c(ccc(C4=CCCCC4)c3=O)[C@H]1[C@@H](C(=O)N1CCc3ccccc3C1)[C@@H]2CO
  DUX4 txn inh: -2.4; DUX4 txn inh difference: 4.6; DUX4 txn inh control: -6.9

> C[C@@H]1CN([C@H](C)CO)C(=O)CCCn2nncc2CO[C@H]1CN(C)C(=O)c1ccncc1
  DUX4 txn inh: -3.3; DUX4 txn inh difference: -0.5; DUX4 txn inh control: -2.8

> C[C@H]1CCCCO[C@@H](CN(C)C(=O)C2CCCCC2)[C@@H](C)CN([C@@H](C)CO)C(=O)c2cc(N(C)C)ccc2O1
  DUX4 txn inh: 0.8; DUX4 txn inh difference: -1.1; DUX4 txn inh control: 1.9

> O=C(C[C@@H]1C[C@@H]2c3cc(NS(=O)(=O)c4ccccc4)ccc3O[C@@H]2[C@H](CO)O1)NCC1CC1
  DUX4 txn inh: 5.4; DUX4 txn inh difference: 1.2; DUX4 txn inh control: 4.2

> COC(=O)[C@H]1[C@H](CO)[C@H]2Cn3c(ccc(-c4cccc(F)c4)c3=O)[C@H]2N1CC1CCCC1
  DUX4 txn inh: ?; DUX4 txn inh difference: /; DUX4 txn inh control: /

> O=C(C[C@@H]1C[C@@H]2c3cc(NC(=O)CC4CC4)ccc3O[C@@H]2[C@@H](CO)O1)NCC1CC1
  DUX4 txn inh: 3.4; DUX4 txn inh difference: -5.4; DUX4 txn inh control: 8.8

> COc1ccc2c3c(n(C)c2c1)[C@@H](CO)N(Cc1ccccc1F)CC31CN(C(=O)C2CCC2)C1
  DUX4 txn inh: ?; DUX4 txn inh difference: /; DUX4 txn inh control: /

> COc1ccc2c3c(n(C)c2c1)[C@@H](CO)N(C)CC31CCN(C(=O)c2cccnc2)CC1
  DUX4 txn inh: 14.9; DUX4 txn inh difference: -2.4; DUX4 txn inh control: 17.4

> O=C(c1cccc(F)c1)N1CC2(C1)[C@H](c1ccccc1)[C@H](CO)N2C(=O)C1CCC1
  DUX4 txn inh: ?; DUX4 txn inh difference: /; DUX4 txn inh control: /

> CCC(=O)N1CC(=O)N2[C@H](CO)[C@@H](c3ccc(C#CC4CCCCC4)cc3)[C@H]2C1
  DUX4 txn inh: 3.5; DUX4 txn inh difference: 2.0; DUX4 txn inh control: 1.5

> COc1ccc(S(=O)(=O)Nc2ccc3c(c2)C(=O)N([C@H](C)CO)C[C@@H](C)[C@H](CN(C)C(=O)NC2CCCCC2)O3)cc1
  DUX4 txn inh: 2.4; DUX4 txn inh difference: 0.6; DUX4 txn inh control: 1.8

> CC(C)C(=O)Nc1ccc2c(c1)C(=O)N(C)[C@H]1CC[C@H](CC(=O)NCc3ccccc3F)O[C@H]1CO2
  DUX4 txn inh: -0.6; DUX4 txn inh difference: -1.0; DUX4 txn inh control: 0.3

> CN(C)C(=O)C[C@@H]1C[C@@H]2c3cc(NC(=O)Nc4ccc(F)cc4)ccc3O[C@@H]2[C@@H](CO)O1
  DUX4 txn inh: 4.8; DUX4 txn inh difference: 0.9; DUX4 txn inh control: 3.9

> C[C@@H]1CN([C@@H](C)CO)C(=O)CCCn2cc(nn2)CO[C@H]1CN(C)C(=O)Nc1ccc(C(C)(C)C)cc1
  DUX4 txn inh: 3.9; DUX4 txn inh difference: 2.7; DUX4 txn inh control: 1.2

> CCC(=O)NC[C@H]1[C@@H](c2ccc(C3=CCCC3)cc2)[C@H](CO)N1C(=O)C1CC1
  DUX4 txn inh: -2.5; DUX4 txn inh difference: -3.8; DUX4 txn inh control: 1.3

> O=C(O)C[C@@H]1CC[C@@H]2[C@H](COC[C@@H](O)CN2S(=O)(=O)c2ccc(F)cc2)O1
  DUX4 txn inh: -0.5; DUX4 txn inh difference: -2.2; DUX4 txn inh control: 1.8

> C[C@@H]1CN([C@@H](C)CO)C(=O)c2ccccc2-c2ccccc2CO[C@@H]1CN(C)Cc1cccc(C(=O)O)c1
  DUX4 txn inh: 13.2; DUX4 txn inh difference: 0.8; DUX4 txn inh control: 12.4

> C[C@H](CO)N1C[C@H](C)[C@H](CN(C)C(=O)NC2CCCC2)OCc2cnnn2CCCC1=O
  DUX4 txn inh: -0.7; DUX4 txn inh difference: 1.2; DUX4 txn inh control: -1.9

> CO[C@@H]1CC[C@H]2CCOc3c(C#N)cccc3C(=O)N(C)[C@@H](C)C(=O)N(C)C[C@@H]1O2
  DUX4 txn inh: -1.6; DUX4 txn inh difference: -1.1; DUX4 txn inh control: -0.6

> CCCNC(=O)N1[C@H](CO)[C@@H]2c3ccccc3N(C(=O)C3CCOCC3)C[C@@H]21
  DUX4 txn inh: -1.9; DUX4 txn inh difference: -1.3; DUX4 txn inh control: -0.7

> O=C(C[C@H]1CC[C@@H]2[C@H](COC[C@@H](O)CN2Cc2cccc(Cl)c2)O1)N1CCCCC1
  DUX4 txn inh: -4.2; DUX4 txn inh difference: -2.4; DUX4 txn inh control: -1.8

> O=C(c1ccccc1F)N1CC(=O)N2[C@H](C1)[C@H](c1ccc(-c3cccnc3)cc1)[C@@H]2CO
  DUX4 txn inh: 0.6; DUX4 txn inh difference: -6.8; DUX4 txn inh control: 7.4

> C[C@@H]1CN([C@H](C)CO)C(=O)c2c(c3ccccc3n2C)-c2ccccc2CO[C@@H]1CN(C)CC1CCCCC1
  DUX4 txn inh: ?; DUX4 txn inh difference: /; DUX4 txn inh control: /

> O=C(NC1CCCC1)[C@@H]1[C@@H](CO)[C@@H]2Cn3c(ccc(-c4ccccc4)c3=O)[C@@H]2N1CCc1ccccc1
  DUX4 txn inh: ?; DUX4 txn inh difference: /; DUX4 txn inh control: /

> CN(C)C(=O)c1cccc(-c2cccc(-c3nc(C(=O)N4CCOCC4)cc4c3[C@@H](CCO)N([S@](=O)C(C)(C)C)C4)c2)c1
  DUX4 txn inh: 2.6; DUX4 txn inh difference: 3.2; DUX4 txn inh control: -0.6

> CCCNC(=O)N1C[C@H]2[C@@H](c3ccccc31)[C@@H](CO)N2Cc1cc(F)ccc1F
  DUX4 txn inh: 0.9; DUX4 txn inh difference: -3.2; DUX4 txn inh control: 4.1

> CN1CCN(C(=O)C[C@@H]2C[C@@H]3c4cc(NC(=O)c5ccc6c(c5)OCO6)ccc4O[C@@H]3[C@H](CO)O2)CC1
  DUX4 txn inh: 4.0; DUX4 txn inh difference: 3.7; DUX4 txn inh control: 0.3

> CCCC(=O)N1CCC2(CC1)CN(C(=O)C1CCC1)[C@@H](CO)c1[nH]c3cc(OC)ccc3c12
  DUX4 txn inh: 11.0; DUX4 txn inh difference: 9.9; DUX4 txn inh control: 1.1

> COc1ccc([C@@H]2C/C=C\C[C@H](c3ccc4c(c3)OCO4)NC(=O)[C@H](c3ccccc3)CC(=O)N2)c(OC)c1
  DUX4 txn inh: -2.5; DUX4 txn inh difference: -3.6; DUX4 txn inh control: 1.1

> CO[C@H]1CN(C)C(=O)c2ccc(NC(=O)NC(C)C)cc2OC[C@@H](C)N(Cc2ccccn2)C[C@H]1C
  DUX4 txn inh: -4.2; DUX4 txn inh difference: -8.9; DUX4 txn inh control: 4.7

> O=C([C@H]1[C@H](CO)[C@H]2Cn3c(cccc3=O)[C@@H]1N2)N1CCc2ccccc2C1
  DUX4 txn inh: -1.8; DUX4 txn inh difference: 1.6; DUX4 txn inh control: -3.3

> CCS(=O)(=O)N1CC(=O)N2[C@H](CO)[C@@H](c3ccc(-c4ccccc4F)cc3)[C@@H]2C1
  DUX4 txn inh: -6.4; DUX4 txn inh difference: -13.6; DUX4 txn inh control: 7.2

> CCCC#Cc1cnc2c(c1)C(=O)N([C@@H](C)CO)C[C@@H](C)[C@H](CN(C)Cc1ccccc1F)O2
  DUX4 txn inh: 6.9; DUX4 txn inh difference: 1.4; DUX4 txn inh control: 5.5

> O=C(C[C@H]1CC[C@@H](NC(=O)CC2CC2)[C@@H](CO)O1)NCc1ccc(-c2ccccc2)cc1
  DUX4 txn inh: 7.5; DUX4 txn inh difference: 10.6; DUX4 txn inh control: -3.0

> CO[C@H]1CN(C)C(=O)c2cc(NC(=O)CC(F)(F)F)ccc2OC[C@H](C)N(C(C)=O)C[C@H]1C
  DUX4 txn inh: 0.9; DUX4 txn inh difference: -0.7; DUX4 txn inh control: 1.6

> CN(C)C(=O)c1ccc(-c2ccc3c(c2)[C@H]2[C@H](CCN2C(=O)c2ccccc2)[C@H](CO)N3)cc1
  DUX4 txn inh: ?; DUX4 txn inh difference: /; DUX4 txn inh control: /

> O=C(c1ccccn1)N1C[C@@H]2[C@H](c3ccccc31)[C@H](CO)N2C(=O)C1CCOCC1
  DUX4 txn inh: 2.1; DUX4 txn inh difference: 2.9; DUX4 txn inh control: -0.9

A draw from above in order of count of non-hydrogen atoms, largest number first:
> CN(C)C(=O)c1cccc(-c2cccc(-c3nc(C(=O)N4CCOCC4)cc4c3[C@@H](CCO)N([S@](=O)C(C)(C)C)C4)c2)c1
  DUX4 txn inh: 2.6; DUX4 txn inh difference: 3.2; DUX4 txn inh control: -0.6

> COc1ccc([C@@H]2C/C=C\C[C@H](c3ccc4c(c3)OCO4)NC(=O)[C@H](c3ccccc3)CC(=O)N2)c(OC)c1
  DUX4 txn inh: -2.5; DUX4 txn inh difference: -3.6; DUX4 txn inh control: 1.1

> CN1CCN(C(=O)C[C@@H]2C[C@@H]3c4cc(NC(=O)c5ccc6c(c5)OCO6)ccc4O[C@@H]3[C@H](CO)O2)CC1
  DUX4 txn inh: 4.0; DUX4 txn inh difference: 3.7; DUX4 txn inh control: 0.3

> CO[C@H]1CN(C)C(=O)c2ccc(NC(=O)NC(C)C)cc2OC[C@@H](C)N(Cc2ccccn2)C[C@H]1C
  DUX4 txn inh: -4.2; DUX4 txn inh difference: -8.9; DUX4 txn inh control: 4.7

> CN(C)C(=O)c1ccc(-c2ccc3c(c2)[C@H]2[C@H](CCN2C(=O)c2ccccc2)[C@H](CO)N3)cc1
  DUX4 txn inh: ?; DUX4 txn inh difference: /; DUX4 txn inh control: /

> CCCC(=O)N1CCC2(CC1)CN(C(=O)C1CCC1)[C@@H](CO)c1[nH]c3cc(OC)ccc3c12
  DUX4 txn inh: 11.0; DUX4 txn inh difference: 9.9; DUX4 txn inh control: 1.1

> O=C(c1ccccc1F)N1CC(=O)N2[C@H](C1)[C@H](c1ccc(-c3cccnc3)cc1)[C@@H]2CO
  DUX4 txn inh: 0.6; DUX4 txn inh difference: -6.8; DUX4 txn inh control: 7.4

> O=C(c1ccccn1)N1C[C@@H]2[C@H](c3ccccc31)[C@H](CO)N2C(=O)C1CCOCC1
  DUX4 txn inh: 2.1; DUX4 txn inh difference: 2.9; DUX4 txn inh control: -0.9

> CCS(=O)(=O)N1CC(=O)N2[C@H](CO)[C@@H](c3ccc(-c4ccccc4F)cc3)[C@@H]2C1
  DUX4 txn inh: -6.4; DUX4 txn inh difference: -13.6; DUX4 txn inh control: 7.2

> CCCNC(=O)N1[C@H](CO)[C@@H]2c3ccccc3N(C(=O)C3CCOCC3)C[C@@H]21
  DUX4 txn inh: -1.9; DUX4 txn inh difference: -1.3; DUX4 txn inh control: -0.7

> O=C([C@H]1[C@H](CO)[C@H]2Cn3c(cccc3=O)[C@@H]1N2)N1CCc2ccccc2C1
  DUX4 txn inh: -1.8; DUX4 txn inh difference: 1.6; DUX4 txn inh control: -3.3
